# Screening results: PubChem BioAssay, several laboratories
# PABP polyA inh = PABP poly(A) RNA binding inhibitors, primary screen, biochemical, fluorescence polarization, uHTS; Polyadenylate-binding protein 1 (Homo sapiens), P11940; 290,000 compounds, 1% hits; AID 2014, 2009; inhibition, % at 35 µM;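 active means 50% or more with normal probe brightness, or confirmed in later tests; inconclusive means above 50% with abnormal brightness, or retests that disagree; inactive means below 50% or failed in later tests; about a fifth of its hits are not listed in these tables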;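 further: calls also rest on retests at 20 µM and on dose response follow-up; controls were probe without protein and protein plus probe with vehicle; some compounds called inactive have numbers as strong as hits; many hits fall short of the cut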
# Target sequence (P11940 whole entry, looked up): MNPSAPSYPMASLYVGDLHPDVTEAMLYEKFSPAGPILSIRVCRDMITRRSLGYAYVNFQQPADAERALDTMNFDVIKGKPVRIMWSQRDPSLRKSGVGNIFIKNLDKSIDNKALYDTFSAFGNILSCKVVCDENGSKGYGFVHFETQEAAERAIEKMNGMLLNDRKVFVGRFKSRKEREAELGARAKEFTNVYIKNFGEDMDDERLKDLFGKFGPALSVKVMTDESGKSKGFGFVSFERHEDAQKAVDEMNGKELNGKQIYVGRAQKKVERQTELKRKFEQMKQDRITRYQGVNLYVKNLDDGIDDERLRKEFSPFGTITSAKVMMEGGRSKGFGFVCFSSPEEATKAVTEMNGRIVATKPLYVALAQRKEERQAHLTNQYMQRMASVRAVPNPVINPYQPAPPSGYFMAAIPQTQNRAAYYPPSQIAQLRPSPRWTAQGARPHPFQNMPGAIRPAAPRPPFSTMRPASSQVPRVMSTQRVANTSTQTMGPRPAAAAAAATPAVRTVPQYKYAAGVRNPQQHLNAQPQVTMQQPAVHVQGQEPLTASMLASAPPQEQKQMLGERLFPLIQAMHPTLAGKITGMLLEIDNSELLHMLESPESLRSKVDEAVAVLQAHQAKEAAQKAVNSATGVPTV
# CSC inhib = cancer stem cell viability inhibitors, primary screen, luminescence. cancer stem cell-like cells viability. inhibition, % at 7.5 µM. 300,000 compounds, 1.1% hits;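 active means mean at 75% or more and at least half the replicates too; inconclusive means mean and replicates disagree; tested in HMLE shEcad cells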;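 further: 0% = median of negative and 100% = median of positive control wells; the first replicate is given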
# Rce1 inhib = yeast Rce1p protease inhibitors, primary screen, biochemical, fluorescence, cell-free homogeneous | CAAX prenyl protease 2 (Saccharomyces cerevisiae (strain ATCC 204508 / S288c)), Q03530 | yeast membranes, quenched prenylated peptide cleavage fluorescence | calls only | 290,000 compounds, 0.27% hits | AID 2563, 2010;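 active means fall in fluorescence gain of 50% or more versus controls, with final raw signal at or below 3038400; inconclusive means same 50% fall but final raw signal above 3038400; inactive means fall in fluorescence gain under 50%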;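 further: plate controls were neutral control wells for no effect and wells lacking membranes for full effect; tested at 10 µM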
# Target sequence (Q03530 whole entry, looked up): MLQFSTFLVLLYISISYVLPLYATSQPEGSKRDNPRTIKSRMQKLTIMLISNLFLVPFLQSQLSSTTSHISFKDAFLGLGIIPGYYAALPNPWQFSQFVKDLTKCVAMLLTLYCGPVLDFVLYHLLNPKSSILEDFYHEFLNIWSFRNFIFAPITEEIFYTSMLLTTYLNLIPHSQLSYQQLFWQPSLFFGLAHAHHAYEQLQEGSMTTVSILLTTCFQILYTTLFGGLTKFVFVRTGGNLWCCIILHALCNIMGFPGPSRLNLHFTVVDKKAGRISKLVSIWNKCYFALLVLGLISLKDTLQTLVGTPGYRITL
# HIV Env fusion = inhibitors of HIV-1 Env-driven cell-cell fusion, primary screen, HeLa-JRFL effector, CEM21 target cells, luciferase; inhibition, % at 12.3 µM; 360,000 compounds, 1.1% hits;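 active means mean replicate inhibition score of at least 50 and every replicate individually at or above 50; inconclusive means only one of the two criteria met; inactive means mean below 50 and not all replicates reaching 50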;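 further: 0% = plate neutral controls and 100% = maraviroc near 300 nM; one replicate is shown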
# eIF4H FP inh = human eIF4H binding inhibitors, primary screen, translation initiation inhibitor project, biochemical, uHTS, fluorescence polarization | 290,000 compounds, 0.94% hits | inhibition, % at 35 µM | Eukaryotic translation initiation factor 4H (Homo sapiens), Q15056 | eIF4H fluorescence polarization binding assay;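 active means 50% or more with normal probe brightness, or confirmed in later tests; inconclusive means above 50% with abnormal brightness, or retests that disagree; inactive means below 50% or failed in later tests; about a fifth of its hits are not listed in these tables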;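 further: calls also rest on retests at 20 µM and on dose response follow-up; 0% = protein and probe with vehicle and 100% = probe without protein; strong numbers were not always called active; many hits fall short of the cut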
# MT1-MMP act inh = blockers of MT1-MMP proenzyme processing, primary screen, HT1080 RFP-PRO-GFP cells, GFP/RFP fluorescence; Matrix metalloproteinase-14 (Homo sapiens), P50281; GFP/RFP ratio fluorescence, overnight; percent of plate control window, DMSO zero; GFP/RFP ratio change, % at 20 µM; 360,000 compounds, 0.061% hits; AID 651647, 2012;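 active means GFP/RFP ratio change of at least 30% with cell ATP level not reduced by more than half and red fluorescence within 50% of control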; further: strong numbers were not always called active
#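 Test system: HT1080 cells expressing an RFP-PRO-GFP fluorescent reporter construct / Compound dosing: single-point 20 µM compound, 1% DMSO / Schedule: cells overnight before dosing, compound overnight, 37 °C, 5% CO2 / Evaluation: GFP/RFP fluorescence ratio / Control set: DMSO and RFP-L50D-GFP cell wells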
# UUG fidelity = modulators of yeast start codon fidelity, primary screen, whole organism, S. cerevisiae, single point, plate reader; S. cerevisiae UUG-firefly luciferase reporter, luminescence/redox ratio; activity score, % at 18.7 µM; 350,000 compounds, 0.13% hits; AID 602363, 2012;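 active means replicate mean at a twofold rise or more, about +100% in these data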;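 further: firefly luciferase made from a UUG start codon reports start codon fidelity; reporter light over untreated wells divided by growth signal over untreated wells; some hits fall short of that in this replicate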
# eIF4H FP inh retest = also measured in eIF4H FP inh; calls as there; inhibition, %; compound at 20 µM; confirmation average;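 mean of two retest wells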
# PABP polyA inh retest = recorded beside PABP polyA inh, whose call it bears; inhibition, %; compound at 20 µM; confirmation repeats;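 mean of two retest wells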
# MT1-MMP act inh RFP = recorded beside MT1-MMP act inh, whose call it bears; RFP signal change, %; measured here: RFP expression control read;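 0 = vehicle wells; hits needed this value within 50% of zero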
# * = called active by the depositor; i = inactive; ? = inconclusive; . = not tested or not shown; & = joins results of further samples.
SMILES,PABP polyA inh,CSC inhib,Rce1 inhib,HIV Env fusion,eIF4H FP inh,MT1-MMP act inh,MT1-MMP act inh RFP,UUG fidelity,others
COc1cccc(-c2nc3n(n2)C(c2ccccc2Cl)C(C(N)=O)=C(C)N3)c1 (stereo not given),24,.,i,5,8,-1,2,0,
COCCNC(=O)[C@@H]1CSC2c3ccc(OC)c(OC)c3C(=O)N21 (stereo not given in full),0,-8,i,10,-2,0,-1,-27,
O=C(Nc1nnc([C@H]2C[C@H](O)[C@@H](CO)O2)s1)c1cccc(OC(F)(F)F)c1,.,.,.,-2,.,2,3,-2,
CC1Cc2ccccc2N1C(=O)CSC1=NCCS1 (stereo not given),-8,-1,i,-4,-12,4,-2,-7,
O=C(N/C(=C/c1ccc(Br)cc1)C(=O)N1CCCC1)c1cccs1,1,-10,i,3,0,-2,1,.,
COc1cc(C)ccc1OCCOc1c(C)cc(Cl)cc1Cl,0,6,i,13,-2,1,2,-12,
O=c1c2ccccc2ncn1-c1cccc(Br)c1,-1,2,i,-65,14,-2,1,-12,
CCN(CC(=O)Nc1c(F)cccc1F)C(=O)CCCc1nc2ccccc2c(=O)[nH]1,.,3,.,-14,.,0,-2,-18,
CCCC(NC(=O)COc1cc2c(c3oc(=O)c(C)c(C)c13)CCC(C)(C)O2)C(=O)O (stereo not given),14,-5,?,10,-4,8,6,-6,
CCc1ccc2[nH]c(=O)c(CN(Cc3ccc(OC)cc3)Cc3nnnn3CCOC)cc2c1,4,.,i,.,2,-4,-3,-6,
CC(C)Oc1ccc(NC(=O)C2CCCNC2=O)cc1 (stereo not given),5,9,i,-22,-5,1,1,-11,
CCN(CC)CCNC(=O)CNC(=S)N(CCCN1CCOCC1)Cc1cccs1,-16,.,i,4,-9,1,-1,-45,
CCCOC(=O)C1=C(C)NC2=C(C(=O)C(C(=O)OC)C(C)C2)C1c1ccc(N(C)C)cc1 (stereo not given),-2,5,i,-29,-2,-7,0,-2,
Cc1c(C(=O)N(C)Cc2ccccc2)oc2c(Cl)cccc12,10,14,i,2,9,3,2,-7,
COc1cccc(C2C(C#N)=C(N)Oc3cc(N)ccc32)c1OC (stereo not given),-4,-16,i,-23,22,-4,-2,-7,
CCCCn1c(N)c(N(CCC(C)C)C(=O)Cc2ccc(S(=O)(=O)N3CCOCC3)s2)c(=O)[nH]c1=O,.,.,i,-17,.,-7,0,-6,
Cc1cccc(C(=O)N2CCc3c([nH]c4ccccc34)C2CC(C)C)n1 (stereo not given),4,-7,i,-12,0,-3,1,.,
O=C(NCCCN1CCCC1)c1cc(Sc2ccc(F)cc2)nc2ccccc12,2,-2,i,16,2,-2,-3,.,
CCCCn1c(-c2ccsc2)nc2c1c(=O)[nH]c(=O)n2CCC,-4,10,i,-28,-3,11,8,-22,
Cc1cccc(C)c1NC(=O)CSc1nc2ccccc2c(=O)[nH]1,4,-3,i,-106,0,5,-1,-15,
CCOC(=O)c1c(/N=C/C2C(=O)CCCC2=O)sc(C)c1C,-8,-4,i,.,20,0,4,-15,
COc1ccc(NC(=O)/C(=C/c2ccc3c(c2)OCO3)NC(C)=O)cc1,-7,7,i,8,6,-3,3,.,
O=C(Nc1ccc2c(c1)OCO2)NC1(C(F)(F)F)Oc2ccccc2O1,-2,.,i,-26,1,-13,-7,-14,
C[C@H]1CN([C@@H](C)CO)C(=O)c2cc(NC(=O)C3CCCCC3)ccc2O[C@H]1CN(C)S(=O)(=O)c1ccccc1,.,-6,.,-50,.,-6,-2,0&-9,
COc1cc(C2SCC(=O)N2Cc2ccccc2)cc(OC)c1OC (stereo not given),-9,-6,i,-7,-6,-1,3,-9,
# Remaining list, next part:
SMILES,PABP polyA inh,CSC inhib,Rce1 inhib,HIV Env fusion,eIF4H FP inh,MT1-MMP act inh,MT1-MMP act inh RFP,UUG fidelity,others
Fc1ccc(-c2cnc3n2CCCCC3)cc1,-2,-9,i,-2,-2,1,1,-12,
C[C@@H]1CN([C@@H](C)CO)C(=O)c2cccc(NC(=O)c3ccncc3)c2O[C@@H]1CN(C)Cc1ccc(-c2ccccc2)cc1,.,18,.,-6,.,-2,1,-6&6,
Cc1ccc(S(=O)(=O)N(Cc2ccccc2F)C(=O)N2CCN(C)CC2)cc1,.,-14,i,3,.,0,1,11,
Cc1ccc(-c2nc3ncccn3c2NC2CCCC2)o1,46,-24,i,-30,47,9,8,-23,
Cc1nn(Cc2ccc(Cl)cc2)c2sc(C(=O)OCC(N)=O)cc12,-2,9,i,.,3,4,1,-18,
CC1CN(CCCCOc2ccc(F)cc2)CC(C)O1 (stereo not given),14,-2,i,-11,-5,2,3,.,
NC(=O)C1CCN(c2nc(-c3ccccc3F)cs2)CC1,.,-16,.,-109,.,5,-4,1,
CC(=O)c1ccc(NC(=O)C2CCCNC2=O)cc1 (stereo not given),1,-9,i,-38,-1,-25,6,-3,
Nc1ccc(N=Nc2ccc(N)cc2)cc1,0,23,i,-49,0,15,-7,.,
CCN(C(=O)c1ccc(NC(=O)C2CCCCC2C(=O)O)cc1)c1ccccc1 (stereo not given),.,.,.,-9,.,-2,3,-11,
Cc1c(Cl)cccc1NC(=O)CSc1ncnc2c1cnn2CCc1ccccc1,5,5,i,.,-3,-2,2,-5,
CCC(=O)NNC(=O)CCC(=O)Nc1ccc(C)cc1C,-7,-19,i,2,-2,1,2,.,
O=C(COC(=O)C12CC3CC(CC(Br)(C3)C1)C2)Nc1ccc2[nH]c(=O)[nH]c2c1,.,1,i,4,.,0,6,-13,
COC(=O)c1ccc(NS(=O)(=O)c2ccc(OC)cc2)cc1,-6,-15,i,-53,-2,8,1,3,
COc1ccc(NC(=S)N2CCC(C(=O)c3ccc(F)cc3)CC2)c(OC)c1,7,4,i,-3,9,2,2,.,
O=C(c1ccc(COc2ccccc2Cl)o1)N1N=C(C(F)F)CC1(O)C(F)F (stereo not given),0,24,i,-5,-7,3,2,-7,
Clc1ccccc1SCc1nc2ccccc2[nH]1,-11,.,i,-27,-6,10,-6,-27,
Cc1cc(NC(=O)COC(=O)c2cc(S(=O)(=O)N(C)c3ccccc3)ccc2Cl)no1,15,-3,i,12,-4,1,5,.,
COc1ccc(C2CC(=O)Nc3cc(C)c(C)cc32)c(OC)c1OC (stereo not given),-3,-18,i,.,7,2,-2,-2,
N#C/C(=C\c1cccc(Oc2ccccc2)c1)C(=O)N1CCOCC1,-2,10,i,8,6,-3,0,5,
CC(C)NC(=O)COC(=O)c1ccc(NS(=O)(=O)c2ccc3c(c2)OCCO3)cc1,5,-13,i,-5,-10,-4,-3,-5,
Cc1cc(C)cc(NS(=O)(=O)c2coc(C(N)=O)c2)c1,6,-8,i,6,-16,0,7,-8,
Nc1sccc1C(=O)c1ccc(Cl)cc1,116,.,i,.,117,-5,9,-5,eIF4H FP inh retest=1;PABP polyA inh retest=2
Clc1ccc(Cl)c(OCCN2CCCC2)c1,8,-1,i,-4,12,4,4,-6,
COc1ccc(C)cc1-n1cnc2sc(C)c(C)c2c1=O,.,.,.,38,.,-1,-2,-9,
# The list continues:
SMILES,PABP polyA inh,CSC inhib,Rce1 inhib,HIV Env fusion,eIF4H FP inh,MT1-MMP act inh,MT1-MMP act inh RFP,UUG fidelity,others
Cc1ccc(NC(=O)c2ccc(CSc3nnnn3C)cc2)cc1,-8,6,i,.,-16,1,-1,-8,
N#C/C(=C\c1cccs1)C(=O)Nc1ccccn1,21,-12,i,-129,14,-6,-7,.,
O=C(NCc1ccc(F)cc1)c1cc(C2CCCCN2C(=O)c2cccs2)on1 (stereo not given),.,.,.,2,.,2,-3,2,
COc1ccc(C(=O)Nc2nc(CC(=O)NCCc3ccccc3OC)cs2)cc1,.,-3,i,-6,.,0,-4,.,
Nc1cc(C(=O)N2CCN(c3ccc([N+](=O)[O-])cc3)CC2)ccc1N1CC2CC(C1)c1cccc(=O)n1C2 (stereo not given),1,-14,i,0,0,-1,0,-15,
CCOc1ccccc1N1CCN(C(=O)C(Sc2ccccc2)c2ccccc2)CC1 (stereo not given),20,1,i,.,-13,-11,-8,4,
Cc1cccc(CSCCNC(=S)Nc2ccccc2)c1,3,17,i,-6,1,11,4,.,
COc1cccc(C(=O)NCC(c2ccco2)N2CCc3ccccc3C2)c1 (stereo not given),.,1,i,-15,.,-1,-1,-2,
COc1cc(C(=O)Oc2cccc(C(=S)N3CCOCC3)c2)cc(OC)c1OC,-2,-1,i,-20,-14,0,-1,-17,
CCOC(=O)C1CSc2[nH]c(=O)sc2C1c1ccccc1 (stereo not given),32,-14,i,.,0,-7,-1,-6,
CN(C)c1nc(-c2ccccc2)ncc1S(=O)(=O)c1ccccc1,-6,-12,i,14,-13,-2,-8,.,
Cc1ccc(N(CC(=O)Nc2ccccc2C(=O)NCc2ccco2)S(=O)(=O)c2ccccc2)cc1C,7,-1,i,.,-3,-4,-8,-23,
COc1cc(NC(=O)CN2C(=O)C(c3ccccc3)=NC2(C)C)cc(OC)c1,-11,8,i,-3,-7,3,3,-7,
Cc1ccc(S(=O)(=O)N2CCN(C(=O)CNC(=O)c3ccc(Br)o3)CC2)cc1,.,-8,i,64*,.,2,2,.,
CCN(C[C@H]1N[C@@](CC)(C(=O)OC)[C@H]2C(=O)N(C)C(=O)[C@@H]12)C(=O)COC,.,.,.,7,.,2,7,-9,
CCOc1ccc(NS(=O)(=O)c2ccc(C(=O)N3CCCCC3)cc2)cc1,1,1,i,43,-3,1,-18,17,
CC(C)n1ncc2c(C(=O)N3CCN(Cc4ccc(Br)s4)CC3)cc(C3CC3)nc21,.,14,.,29,.,1,-10,0,
CC(=O)Nc1ccc(C(=O)Nc2cc(C)on2)cc1,2,-1,i,-15,-6,8,3,-20,
CC(=O)Nc1ccc2c(c1)nc(C)n2-c1ccccc1,3,-5,i,1,3,0,1,-21,
C=CCn1c(C)cc(C(=O)COC(=O)/C=C/c2cccc(OC)c2)c1C,-2,-7,i,0,6,-1,1,.,
COC(=O)c1cc(Br)c(=O)n(Cc2cccnc2)c1,-6,7,i,.,0,3,0,8,
CCCCn1c2ccccc2c2cc(CC(N)=O)ccc21,-8,4,i,12,-9,2,1,.,
COc1cc(/C=C2\C(=O)N(CCC#N)N=C2C)ccc1OCC(=O)Nc1ccccc1,-2,-18,i,-401,-2,13,5,-16,
C[C@H](CO)N1C[C@H](C)[C@@H](CN(C)C(=O)Nc2ccccc2)Oc2ccc(NC(=O)CCN3CCOCC3)cc2C1=O,.,0,.,.,.,0,5,10&1,
O=C(CCl)N(Cc1cc(=O)[nH]c2ccccc12)c1ccccc1,0,45,i,11,-13,-2,2,.,
C1CN(CCN2CCOCC2)CCN1,-2,-14,i,.,4,1,3,4,
O=S(=O)(Nc1cc(S(=O)(=O)N2CCOCC2)ccc1Cl)c1ccccc1,.,-16,.,.,.,-7,-4,-12,
Cc1ccc(CCNC(=O)C2CCC(=O)N2Cc2ccc(F)cc2)cc1 (stereo not given),0,-11,i,-8,-7,-2,-1,-8,

# Only part of the results is shown; the hit share may differ from the screen's.
